Rango dissoc inh = qHTS Assay for Inhibitors of RanGTP induced Rango (Ran-regulated importin-beta cargo) - Importin beta complex dissociation. Snurportin-1 (Homo sapiens) + GTP-binding nuclear protein Ran (Homo sapiens) + Importin …. Biochemical FRET Rango-importin beta, RanGTP-induced dissociation. Potency, µM (top dose mostly 46.1 µM), without a hit: top-dose activity change, negative = inhibition. hit rate 0.071% among 340,000; active means falling FRET ratio curve, often poorly fitted, with flat reads before Ran was added; inconclusive means other falling curves, or compound fluorescence or quenching; inactive means flat or rising ratio curve;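 further: potency means the concentration at half of the fitted maximal effect; % of control where 0% means no effect; nearly all actives have a fitted effect of over 45% in size; -100% = wells without RanGTP and RCC1; the record marks most hits as doubtful in a second field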
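Rango FRET biosensor (snurportin-1 IBB flanked by N-terminal EYFP and C-terminal CFP10) at 0.1 uM, with 0.25 uM importin beta in PBS, 1mM DTT, 0.02% Tween-20, 0.1% BSA. 0.6 uM Ran, 2mM GTP and 0.2 uM RCC1 were then added for 45 min at room temperature. Inhibition read as loss of FRET rise.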
GLA inh pH 4.5 = qHTS Assay for Inhibitors of Human alpha-Galactosidase at pH 4.5; AID 1467, 2008; Alpha-galactosidase A (Homo sapiens), P06280; activity change, negative = inhibition, % at 105 µM; 230,000 tested, under 10 active; purified enzyme, 4-MU-alpha-Gal fluorescence, pH 4.5; inconclusive = small, poorly fitted or top-dose-only inhibition, or a rising curve; inactive = flat fitted curve, though single readings scatter; no compound was filed as active;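 further: 0% = full activity with enzyme and -100% = basal without enzyme; dose as in the result columns while the protocol names 77 µM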
miR-21 reporter = qHTS Assay for Modulators of miRNAs and/orActivators of miR-21; HeLa miR-21 FLuc reporter, luciferase, 48 h; Potency, µM (top dose mostly 38.3 µM), inactives show top-dose reporter change, positive = more light; 340,000 tested, under 10 active; AID 2288, 2010; active = well fitted rising curve with a large enough effect; inconclusive = small, poorly fitted or top-dose-only effect; inactive = no such curve, though single readings can be large or run the other way;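 further: % of control where 0% means no effect; miR-21 action dims this reporter so a rising signal means less miR-21 action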
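HeLa miR-21-FLuc reporter line, endogenous miR-21; 2000 cells/well in DMEM/10% FBS; compound titration up to ~40uM final, 48 h, 37 degree Celsius; luciferase detection reagent, 15 min lysis, CCD luminescence.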
Rango-impB inh = qHTS Assay for Inhibitors of Rango (Ran-regulated importin-beta cargo) - Importin beta complex formation; Importin subunit beta-1 (Homo sapiens), Q14974; Rango CFP/YFP FRET sensor + importin beta, 45 min; Potency, µM (doses to about 92.2 µM), for the others: at the top dose inhibition of complex formation; hit rate 0.031% among 340,000; AID 540263, 2011; active = rising FRET ratio curve, often small or poorly fitted; inconclusive = mostly compound fluorescence or quenching in the first reads; inactive = flat curves in all reads;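 further: potency means the concentration at half of the fitted maximal effect; 0% = DMSO wells and 100% = buffer wells lacking importin beta; nearly all actives have a fitted effect of over 15% in size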
Target sequence (Q14974 whole entry, looked up): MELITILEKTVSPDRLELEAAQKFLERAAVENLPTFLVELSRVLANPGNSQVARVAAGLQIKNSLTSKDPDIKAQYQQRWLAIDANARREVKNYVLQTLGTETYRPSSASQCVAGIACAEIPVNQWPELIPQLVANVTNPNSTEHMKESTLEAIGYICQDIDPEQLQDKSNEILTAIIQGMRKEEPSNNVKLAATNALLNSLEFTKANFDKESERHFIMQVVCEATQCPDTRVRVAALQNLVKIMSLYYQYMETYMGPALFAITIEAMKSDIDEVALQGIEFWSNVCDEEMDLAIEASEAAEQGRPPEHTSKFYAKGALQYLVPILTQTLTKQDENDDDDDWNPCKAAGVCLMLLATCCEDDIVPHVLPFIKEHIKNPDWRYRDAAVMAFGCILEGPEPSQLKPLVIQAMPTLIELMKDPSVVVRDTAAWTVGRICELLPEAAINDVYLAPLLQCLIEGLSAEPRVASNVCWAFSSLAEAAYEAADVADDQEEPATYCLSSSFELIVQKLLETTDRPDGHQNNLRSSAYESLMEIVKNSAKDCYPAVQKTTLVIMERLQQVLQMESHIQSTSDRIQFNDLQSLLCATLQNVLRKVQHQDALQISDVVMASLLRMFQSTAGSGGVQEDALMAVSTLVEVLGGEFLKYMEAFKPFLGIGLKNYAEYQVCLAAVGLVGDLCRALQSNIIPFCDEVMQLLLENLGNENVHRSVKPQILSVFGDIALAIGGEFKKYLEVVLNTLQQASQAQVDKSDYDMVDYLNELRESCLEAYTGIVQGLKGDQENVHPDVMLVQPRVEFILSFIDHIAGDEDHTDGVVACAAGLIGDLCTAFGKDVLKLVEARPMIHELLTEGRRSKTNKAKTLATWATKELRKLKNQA
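FRET biosensor Rango (snurportin 1 IBB between N-terminal EYFP and C-terminal Cerulean), 50 nM in PBS/1 mM DTT/0.02% Tween-20/0.1% BSA, preincubated 5 min RT with compound; 0.125 microM importin beta added, 45 min RT, CFP/YFP FRET ratio read.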
* hit, by the source's call; ? = inconclusive; nt = not tested or not shown. An excerpt, so the mix of outcomes need not match the whole.

Start of the data: the first 3 entries as a preview:
item	compound	Rango dissoc inh	miR-21 reporter	Rango-impB inh	GLA inh pH 4.5
1	COc1cc(/C=N/N2C(C)CCCC2C)cc(Br)c1O (configuration not stated)	3.9%	-0.2%	-2.8%	-4.6
2	Cn1nc(C(F)(F)F)c(-c2ccc(Br)cc2)c1NC(=O)c1ccco1	2.4%	19.3%	5.9%	-8.8
3	COc1ccc(C(=O)/C=C/Nc2ccccn2)cc1	-6.2%	27.7%	-3.7%	-6.2

Results, repeating the preview:
item	compound	Rango dissoc inh	miR-21 reporter	Rango-impB inh	GLA inh pH 4.5
1	COc1cc(/C=N/N2C(C)CCCC2C)cc(Br)c1O (configuration not stated)	3.9%	-0.2%	-2.8%	-4.6
2	Cn1nc(C(F)(F)F)c(-c2ccc(Br)cc2)c1NC(=O)c1ccco1	2.4%	19.3%	5.9%	-8.8
3	COc1ccc(C(=O)/C=C/Nc2ccccn2)cc1	-6.2%	27.7%	-3.7%	-6.2
4	COc1cc(NC(=O)CCS(=O)(=O)c2ccc3c(c2)oc(=O)n3C)cc(OC)c1	1.2%	-2.3%	0.3%	nt
5	CCOC(=O)C1=NN(C(=O)c2ccc(C)cc2)C(O)(c2ccc(Cl)cc2)C1 (configuration not stated)	-0.7%	-4.4%	-0.3%	-5.0
6	COc1ccc(C2CC(c3ccc(F)cc3)n3nc(NS(C)(=O)=O)nc3N2)cc1 (configuration not stated)	-2.7%	-10.8%	-0.6%	11.9
7	CCOC(=O)N1CCN(S(=O)(=O)N2CCCC(C(=O)NCCc3ccc(OCC)c(OCC)c3)C2)CC1 (configuration not stated)	-2.4%	1.5%	0.3%	nt
8	CC(C)(C)c1nn(-c2ccccc2)c2[nH]c(=O)c(CNc3ccc4c(c3)OCCO4)cc12	-5.5%	-11.0%	?	-0.4
9	Cc1ccc(-c2noc(-c3ccccc3C(=O)NCC3CCCO3)n2)cc1 (configuration not stated)	-11.2%	-20.2%	4.0%	3.1
10	COc1ccc(N(CC(=O)NCc2ccccc2)S(=O)(=O)c2c(C)nn(C)c2C)cc1	-6.5%	-0.1%	0.3%	5.7
11	COc1cccc(/C=N/NC(=O)CNC(=O)C(c2ccccc2)c2ccccc2)c1O	-24.3%	12.0%	-2.3%	nt
12	COc1cc(/C=N/NC(=O)CCC(=O)NC2CCCCC2)ccc1C	9.8%	-2.9%	-3.4%	-6.9
13	COc1cc(OC)cc(-c2c(-c3cccs3)c3cc(-c4ccc(C(N)=O)cc4)ccc3n2C)c1	27.0%	nt	-3.4%	nt
14	CC(C)(C)OC(=O)N[C@@H](Cc1ccccc1)c1nnc(S(=O)(=O)Cc2ccccc2)o1	nt	?	nt	2.2
15	CCOc1ccsc1C(=O)OC	22.9%	-1.3%	-2.7%	-18.6
16	CCN1CCN(CCCN(Cc2ccco2)C(=S)Nc2cccc(Cl)c2C)CC1	-9.5%	-1.2%	-0.2%	-2.2
17	Cc1ccc(NC(=O)N2CCN(c3ccccn3)CC2)cc1	-1.9%	-9.8%	2.7%	-3.0
18	Cc1ccc(OCC(=O)Nc2ccc3c(c2)ncn3C)cc1	11.0%	nt	-3.5%	nt
19	CCN(Cc1ccccc1)C(=O)/C=C/c1ccccc1[N+](=O)[O-]	-1.9%	-16.2%	-1.4%	6.1
20	COc1ccccc1CCC(=O)Nc1ccc2c(c1)CN(CCCn1cccn1)CC2	0.8%	-5.8%	1.7%	nt
21	CC(=O)OCCn1c2nc(=O)[nH]c(=O)c-2nc2cc(C)c(C)cc21	?	3.4%	?	-7.5
22	Cc1c(C)c2c(OCC(=O)NCc3ccccn3)cc3c(c2oc1=O)CCC(C)(C)O3	2.4%	-3.5%	0.0%	nt
23	CSc1nn(-c2ccc(C(=O)OC(C(=O)NC(N)=O)C(C)C)cc2)c(=S)s1 (configuration not stated)	-6.8%	-9.0%	-3.2%	-0.5
24	CC(NC(=O)CN1C(=O)NC2(CCCCC2C)C1=O)c1ccccc1 (configuration not stated)	1.9%	nt	0.5%	nt
25	Cc1ccc(CSCC(=O)Nc2ccccc2)cc1	-3.7%	-31.5%	0.9%	nt
26	NNC(=O)c1cccc(COc2ccccc2Br)c1	-4.3%	-46.1%	1.5%	-0.4
27	Cc1ccc(NC(=O)Cc2ccc([N+](=O)[O-])cc2)c(Br)c1	10.3%	-1.1%	2.5%	-10.1
28	COc1ccc(N2C(=O)CCC(C(=O)NCc3ccccn3)C2c2ccc(OC)c(OC)c2)cc1 (configuration not stated)	-14.4%	-1.6%	0.1%	-8.5
29	COc1ccc(CC(NC(C)=O)C(=O)NC2CCN(S(=O)(=O)c3ccc(NC(C)=O)cc3)CC2)c(OC)c1 (configuration not stated)	-12.1%	-6.5%	5.4%	nt
30	O=C(O)CCCNC(=O)OCc1ccccc1	2.6%	4.5%	-1.5%	-2.9
31	Cc1ccc(C(=O)Oc2cc(N)n(S(=O)(=O)c3ccc(F)cc3)n2)cc1	-10.2%	2.4%	-2.4%	nt
32	CCN1C(=O)[C@@H]2[C@@H](c3ccc(-c4cc(C(C)=O)cs4)cc3)N3CCC[C@@]3(C(=O)OC)[C@@H]2C1=O	-0.8%	nt	0.1%	nt
33	CCc1nnc(SCc2cccc(F)c2)nc1CC	-0.6%	nt	-3.7%	nt
34	N#Cc1ccccc1OCC(=O)NCC1(N2CCCCC2)CCCCC1	-23.5%	-13.8%	?	7.2
35	CC(C)[C@H](NC(=O)OCc1ccccc1)C(=O)OCC(=O)N1CCN(c2ccccc2)CC1	8.6%	nt	-1.6%	nt
36	Cc1cc(NC(=O)CO/N=C/c2ccc3c(c2)OCO3)ccc1Br	-3.7%	-1.5%	1.8%	4.6
37	COc1ccc2c(c1)N1CCN=C1N2C	-5.6%	-6.7%	-0.3%	8.3
38	Cc1nn2c(-c3ccncc3)nnc2c2ccccc12	6.5%	-5.7%	5.0%	-5.3
39	C=CCOC(=O)/C(=C\c1cccc2ccccc12)NC(=O)c1ccccc1	14.3%	-24.3%	2.9%	3.2
40	CCCC(c1nnnn1Cc1ccc(F)cc1)N1CCN(C)CC1 (configuration not stated)	1.4%	1.1%	-0.9%	2.8
41	CC(NC(=O)COC(=O)Cn1cnc2ccccc2c1=O)C1CC2CCC1C2 (configuration not stated)	-14.4%	-12.6%	-0.4%	-16.6
42	Cn1nc(C(=O)N2CCN(C(c3ccccc3)c3ccccc3)CC2)c2ccccc2c1=O	2.4%	15.5%	3.8%	-7.5
43	CCOc1ccc(S(=O)(=O)N(C)c2ccc(OCC(=O)Nc3ccc4[nH]c(=O)[nH]c4c3)cc2)cc1	?	-5.6%	-0.5%	-2.5
44	O=C(Cn1cnc2ccccc2c1=O)Nc1ccc(-c2nnc3n2CCCCC3)cc1	-3.3%	9.3%	1.3%	-9.0
45	CCc1cccc(NC(=O)CSC2=NS(=O)(=O)c3ccccc32)c1	-4.2%	-0.1%	-1.8%	-2.3
46	COc1ccc(OC)c(-c2nc3cc4ccccc4cc3nc2-c2ccccc2)c1	?	-2.3%	?	-0.3
47	Cc1ccc(-n2c(SCC(=O)N/N=C/C=C/c3ccccc3[N+](=O)[O-])nc3ccccc3c2=O)cc1	20.2%	-11.9%	-1.2%	-5.8
48	CCN(CCNC(=O)Nc1ccc(Cl)cc1)c1ccccc1	-11.6%	17.2%	-2.1%	-8.2
49	O=C(OCn1nnc2ccccc2c1=O)c1cc(-c2ccccc2)nc2ccccc12	-12.1%	-2.6%	1.7%	6.9
50	COc1ccccc1/C=N/Nc1cc(C)nc(N2CCOCC2)n1	23.3%	2.2%	-1.4%	-22.7
51	COc1ccccc1NC(=O)CN1CCN(CC(=O)Nc2ccc(Cl)c(C(F)(F)F)c2)CC1	0.9%	20.9%	-3.9%	-7.6
52	O=C(COc1ccccc1)NCC(=O)N/N=C/c1ccc(O)cc1O	-6.5%	16.1%	1.3%	0.4
53	CCCCc1nnc(NC(=O)CCS(=O)(=O)c2ccc(Cl)cc2)s1	-19.4%	nt	3.5%	nt
54	COc1ccc(-c2ccc(CCC(=O)O)n2CC(=O)Nc2ccccc2C)cc1	-11.5%	-6.1%	-3.4%	nt
55	Cc1ccc(Cn2cc(S(=O)(=O)c3ccc(Cl)cc3)c(=O)c3cc(F)ccc32)cc1	-19.6%	-1.9%	-2.5%	4.8
56	C1CCN=C(Nc2nn[nH]n2)CC1	18.5%	1.7%	-2.1%	2.0
57	CC1CC2OC(=O)C3(C)CCCC(C)(C23)C1(O)CCc1ccoc1 (configuration not stated)	?	-2.5%	-0.1%	5.2
58	Cn1c(=O)c2[nH]c(CCNC(=O)c3ccccc3)nc2n(C)c1=O	?	nt	?	nt
59	Cc1ccc(OC(C)C(=O)Nc2cc(C)on2)cc1 (configuration not stated)	11.3%	-0.9%	1.6%	nt
60	COc1ccccc1OCCn1cc(/C=N/NC(=O)c2ccncc2)c2ccccc21	13.3%	6.5%	-0.1%	-4.7

The results go on.
item	compound	Rango dissoc inh	miR-21 reporter	Rango-impB inh	GLA inh pH 4.5
61	COc1ccc([C@@H]2CC=C(C(=O)O)[C@H](c3ccc(F)cc3)N2S(=O)(=O)c2ccc(Cl)cc2)cc1	-8.2%	nt	-0.3%	nt
62	COc1ccc(NC(=O)CCCCC#Cc2ccccc2)cc1	-20.4%	nt	1.9%	-8.9
63	CC(C)=CCC[C@](C)(O[C@@H]1O[C@H](CO[C@@H]2OC[C@@H](O)[C@H](O)[C@H]2O)[C@@H](O)[C@H](O)[C@H]1O)C1CC[C@]2(C)C1[C@H](O)CC1[C@@]3(C)CC[C@H](O[C@@H]4O[C@H](CO)[C@@H](O)[C@H](O)[C@H]4O)C(C)(C)C3CC[C@]12C (some centres not stated)	-13.0%	nt	-5.6%	nt
64	O=[N+]([O-])c1ccc(N2CCCCC2)cc1NCCOc1ccccc1	12.6%	-13.2%	?	-4.5
65	CCCCc1nnc(NC(=O)c2ccccc2OCc2c(C)noc2C)s1	28.0%	nt	0.7%	nt
66	Cc1ccc(C(=O)Nc2nc(-c3ccccn3)cs2)s1	3.4%	nt	-3.0%	nt
67	Cc1ccc(C)c(OCc2cc(C(=O)NC(c3ccccn3)C(F)(F)F)no2)c1 (configuration not stated)	-1.2%	nt	0.2%	nt
68	COc1ccc(OS(=O)(=O)c2ccc(N3C(=O)CCC3=O)cc2)cc1	-9.3%	-0.2%	-0.9%	nt
69	CCOCC(=O)Nc1cc(S(=O)(=O)N2CCOCC2)ccc1N1CCCCC1	25.3%	1.8%	0.0%	-2.9
70	CC(C)NC(=O)Nc1n[nH]c(Nc2ccc(Cl)cc2)n1	1.2%	-27.0%	2.8%	6.1
71	Cc1cc(NC(=O)Cc2ccsc2)ccc1Br	-1.6%	-19.9%	3.6%	nt
72	COc1cccc(N2C(=O)CC(N3CCc4ccccc4C3)C2=O)c1 (configuration not stated)	-7.7%	-0.6%	0.4%	-6.7
73	O=C(Nc1cccc(S(=O)(=O)N2CCCCC2)c1)c1cc(=O)[nH]c2ccccc12	-14.9%	nt	0.0%	nt
74	Cn1nnnc1SCC(=O)N1N=C(c2cccs2)CC1c1cccs1 (configuration not stated)	-4.4%	nt	1.2%	nt
75	CC(C)CN(CC(C)C)C(=O)C12CCC(C)(C(=O)O1)C2(C)C (configuration not stated)	-10.6%	-1.5%	1.0%	-9.4
76	COc1ccc(OCc2cc(C(=O)NC(C)Cc3ccccn3)no2)c(Cl)c1 (configuration not stated)	11.4%	-14.8%	3.5%	nt
77	CS(=O)(=O)c1ccccc1C(=O)N(CCc1ccccc1)Cc1ccccc1	-15.5%	-6.1%	-1.5%	nt
78	c1cncc(-c2noc(CC3CCCCC3)n2)c1	-1.1%	-44.7%	0.7%	0.9
